# KCNQ2 block: KCNQ2 channel blockers in CHO-K1 cells – cell-based, FluxOR thallium flux, B-score, primary screen (AID 2156); O88943; 20 min; active compounds read low; only compounds with negative scores are shown here; some inactives read as strong as hits; B-score at 10 µM; 310,000 compounds, 1.1% hits;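 active means fluorescence ratio B-score at most minus 3 library SDs, with starting brightness B-score within 2 library SDs, cut at about -5.5 in these data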
# Target sequence (O88943 whole entry, looked up): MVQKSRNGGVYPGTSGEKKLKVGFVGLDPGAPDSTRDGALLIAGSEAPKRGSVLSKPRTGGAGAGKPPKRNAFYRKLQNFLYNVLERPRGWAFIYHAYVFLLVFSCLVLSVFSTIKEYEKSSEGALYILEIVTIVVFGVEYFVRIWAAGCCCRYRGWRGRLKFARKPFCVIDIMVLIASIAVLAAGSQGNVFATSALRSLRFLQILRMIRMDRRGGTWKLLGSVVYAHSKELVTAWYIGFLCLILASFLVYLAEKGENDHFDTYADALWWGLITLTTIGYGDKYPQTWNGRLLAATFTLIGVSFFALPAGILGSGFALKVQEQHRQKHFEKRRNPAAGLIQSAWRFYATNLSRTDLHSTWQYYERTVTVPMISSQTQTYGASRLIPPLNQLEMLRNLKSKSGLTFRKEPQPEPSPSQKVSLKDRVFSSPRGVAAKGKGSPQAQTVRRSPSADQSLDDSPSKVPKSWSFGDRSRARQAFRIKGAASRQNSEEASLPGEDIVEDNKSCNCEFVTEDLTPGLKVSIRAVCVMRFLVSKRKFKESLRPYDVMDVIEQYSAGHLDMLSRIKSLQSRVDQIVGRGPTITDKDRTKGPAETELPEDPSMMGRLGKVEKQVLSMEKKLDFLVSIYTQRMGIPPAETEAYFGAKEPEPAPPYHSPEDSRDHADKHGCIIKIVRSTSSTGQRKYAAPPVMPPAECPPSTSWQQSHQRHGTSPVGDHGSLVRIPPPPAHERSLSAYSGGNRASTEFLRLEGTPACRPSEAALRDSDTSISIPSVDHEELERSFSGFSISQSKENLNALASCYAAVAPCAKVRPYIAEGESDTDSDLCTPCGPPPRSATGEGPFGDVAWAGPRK
# KCNQ2 block baseline: further read-out of KCNQ2 block, marked with its call; B-score; measured here: initial fluorescence intensity artifact check;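 brightness before thallium and not channel activity; 0 = typical well and far values either way flag optical interference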
# An asterisk follows results filed as active; i = inactive. Some of the compounds tested; the hit share may differ from the screen's.
SMILES,KCNQ2 block,KCNQ2 block baseline
CC(=O)c1c(C)nc(-c2ccc(OCC(=O)Nc3cccc(C)c3C)cc2)n1O,i,1.7
CCOC(=O)N1CCN(C(=O)c2ccc3c(c2)N(Cc2ccc(C)cc2)CCS3)CC1,i,2.6
O=C(NCCCN1CCOCC1)C(=O)NCC1OCCN1S(=O)(=O)c1cc(F)ccc1F (stereo not given),i,-0.3
COc1ccc(CNC(=O)CCCn2c(=S)[nH]c3cc4c(cc3c2=O)OCO4)cc1,i,-0.36
O=C(NCCNS(=O)(=O)c1ccccc1)c1ccc([N+](=O)[O-])cc1,i,-0.36
COc1ccc(OCC(=O)Nc2c(C)ccc3nsnc23)cc1,i,1.3
COc1cc(/C=N/N2C(=O)CSC2=S)ccc1O,i,0.67
COc1ccc(NC(=O)CSc2nc3sc(C)c(C)c3c(=O)n2Cc2ccco2)cc1,i,0.72
Cc1ccc2c(c1)CCCN2C(=O)c1cccs1,i,1.6
Cc1ccccc1OCC(=O)N1N=C(c2cccnc2)CC1(O)C(F)(F)F (stereo not given),i,0.4
c1ccc(CSc2nnc3ccc(-c4cccs4)nn23)nc1,i,-0.03
CCN1CCN(c2ccc(NC(=O)CCc3c(C)nc4c(-c5ccc(F)cc5)c(C)nn4c3C)cc2)CC1,i,1.1
CC(=O)N1CCN(S(=O)(=O)c2cccc(C(=O)Nc3cc(C(F)(F)F)ccc3N3CCOCC3)c2)CC1,i,-0.13
Cc1cccc(CCNC(=O)c2cccc3c2C(=O)N(C2CCCCC2)C3)c1,i,0.76
CSc1ccccc1-c1nc(-c2ccncc2)no1,i,0.14
COc1ccc(-c2csc(NC(=O)CC(NC(C)=O)c3ccccc3)n2)cc1OC (stereo not given),i,0.03
CCN1C(=O)[C@H]2[C@@H](c3ccc(C)cc3)N3C(=O)N(c4cccc(F)c4)C(=O)[C@@]3(C)[C@H]2C1=O,i,3.1
CC(=O)Nc1cccc(C(=O)OCC(=O)Nc2nnc(-c3ccccc3)o2)c1,i,-1
CC(=O)c1sc(NC(=O)C2CSC3(C)CCC(=O)N23)nc1-c1ccccc1 (stereo not given),i,0.02
COc1ccc(C2(O)CCN(CC(=O)Nc3nc(-c4ccccc4)cs3)CC2)cc1,i,-2
O=C(c1cc(Cl)c(=O)n(Cc2ccccc2)c1)N1CCOCC1,i,3.4
CSCC[C@H](NC(=O)c1nn(C)c(=O)c2ccccc12)c1nc2ccccc2[nH]1,i,0.18
C=CCn1c(SCc2csc(C)n2)nc2scc(-c3ccc(C)o3)c2c1=O,-5.8*,1.6*
CCCc1nnc(SCC(=O)N2CCCC(C)C2)n1CC1CCCO1 (stereo not given),i,-1.4
COC(=O)c1cc(OC)c(OC)cc1NC(=O)CCc1ccc(C)o1,i,-0.27
Cc1cccc(-n2c(SCCC(=O)O)nnc2-c2cccs2)c1C,i,-1.9
C=CCOc1ccc(C2/C(=C(\O)c3c(C)[nH]c(C(=O)OC)c3C)C(=O)C(=O)N2CCN(C)C)cc1 (stereo not given),i,-0.64
O=C(O)C1CSC(c2coc3ccccc3c2=O)N1 (stereo not given),i,-1.4
Cc1ccc(C)c(NC(=O)c2cnc3n(c2=O)CCS3)c1,i,-0.32
CCOC(=O)N1CCN(C(=O)c2ccc(-n3c(C)ccc3C)cc2)CC1,i,0.06

# Given with each value named: entries from further up.
> CC(=O)N1CCN(S(=O)(=O)c2cccc(C(=O)Nc3cc(C(F)(F)F)ccc3N3CCOCC3)c2)CC1
  KCNQ2 block = i
  KCNQ2 block baseline = -0.13
> Cc1cccc(CCNC(=O)c2cccc3c2C(=O)N(C2CCCCC2)C3)c1
  KCNQ2 block = i
  KCNQ2 block baseline = 0.76
> CSc1ccccc1-c1nc(-c2ccncc2)no1
  KCNQ2 block = i
  KCNQ2 block baseline = 0.14
> COc1ccc(-c2csc(NC(=O)CC(NC(C)=O)c3ccccc3)n2)cc1OC (stereo not given)
  KCNQ2 block = i
  KCNQ2 block baseline = 0.03

# Other compounds.
SMILES,KCNQ2 block,KCNQ2 block baseline
CN1C(=O)c2ccc(N(C)C)cc2C1=O,i,1.6
O=C(CCCn1c(=S)[nH]c2ccsc2c1=O)NCCc1ccccc1,i,1.1
CO/N=C(/CS(=O)(=O)Cc1ccccc1Cl)c1ccc(Cl)cc1Cl,i,0.64
CCCC(=O)NCc1ccc2c(c1)cc(C)n2C,i,1.2
COC(=O)c1ccc(CN(C)S(=O)(=O)c2cccs2)cc1,i,1.3
CN(C)S(=O)(=O)c1cccc(C(=O)Nc2ccc(Cl)cn2)c1,i,-0.45
O=C1NC(c2ccccc2Cl)=N/C1=C/c1ccco1,i,-1.8
CCC(CC)c1nnc(NC(=O)C2CCCO2)s1 (stereo not given),i,-0.22
CCN(Cc1ccccc1)S(=O)(=O)c1ccc2oc(C(=O)O)c(C)c2c1,i,-1.1
COc1ccc(-n2cnc3sc4c(c3c2=O)CCCC4)cc1,i,-0.02
Cc1c(C(=O)NCCSCc2ccc(Cl)cc2Cl)cccc1[N+](=O)[O-],i,2
Cc1nccn1CC(=O)N/N=C/c1cccc(O)c1,i,1.3
CCC(C)c1ccccc1N1CC(C(=O)NCCc2ccc(OC)c(OC)c2)CC1=O (stereo not given),i,-0.01
O=C(CC1CCCCC1)NCc1ccccc1Cl,i,-2.2
COc1ccc(NC(=O)C(C)N(c2ccc(C)cc2)S(C)(=O)=O)c(OC)c1 (stereo not given),i,-0.44

# A draw from above in order of length of the SMILES, descending.
SMILES,KCNQ2 block,KCNQ2 block baseline
CCC(C)c1ccccc1N1CC(C(=O)NCCc2ccc(OC)c(OC)c2)CC1=O (stereo not given),i,-0.01
COc1ccc(-n2cnc3sc4c(c3c2=O)CCCC4)cc1,i,-0.02
Cc1nccn1CC(=O)N/N=C/c1cccc(O)c1,i,1.3
CCC(CC)c1nnc(NC(=O)C2CCCO2)s1 (stereo not given),i,-0.22

# Further structures
SMILES,KCNQ2 block,KCNQ2 block baseline
Cc1cc(NC(=O)COc2ccccc2)n(-c2ccccc2)n1,i,-0.15
CC1CCC(NC(=O)Nc2cccs2)CC1 (stereo not given),i,2.5
Cc1ccc(S(=O)(=O)N(C)C)cc1NC(=O)COC(=O)c1sc2cc(Cl)ccc2c1Cl,i,-0.7
CCOc1ccccc1NC(=O)CS(=O)(=O)c1cn(CC(=O)N2CCOCC2)c2ccccc12,i,-0.56
O=C(CN1C(=O)C2CCCCC2C1=O)Nc1nc2ccc(F)cc2s1 (stereo not given),-6.2*,1.2*
COC(=O)c1ccc(C(=O)OC)c(NC(=O)c2cccnc2)c1,i,0.42
Cc1cc(C)cc(NC(=S)N2CCN(c3ccccn3)CC2)c1,i,-2.5
Cc1cc(C)cc(NS(=O)(=O)c2ccc(NC(=S)NC(=O)c3ccc(Br)o3)cc2)c1,i,0.97
CCc1ccc(OCC(=O)N/N=C2\CC(=O)c3ccccc32)cc1,i,0.02
Cc1cc(NC(=O)C2CCCO2)ccc1Br (stereo not given),i,1.2
Cc1ccc(OCC(=O)NNC(=O)Cn2nnc(-c3ccccc3)n2)cc1,i,-1.3
O=S(=O)(NCC(c1cccnc1)N1CCN(Cc2ccccc2)CC1)c1ccc(Cl)cc1 (stereo not given),i,-1.7
CN(C)CCN1CC(O)=C(c2nc3ccccc3s2)C1=N,i,0.71
CCN1C(=NCCOC)N[C@@H](CCc2ccccc2)[C@H](C(=O)OC)[C@H]1C,i,1.1
CCCCOC(=O)c1ccc(NC(=O)CSCc2n[nH]c(=O)[nH]2)cc1,i,-0.03
Cc1ccsc1C(=O)N1CCCC(CCC(=O)N2CCN(c3ccccn3)CC2)C1 (stereo not given),i,-0.06
CCOC(=O)/C(C#N)=C/c1ccc(N2CCCCC2)cc1,i,1.2
CCCN1CCC(NC(=O)C2CCN(C(C)=O)CC2)CC1,i,0.37
Brc1ccc(-c2nnc(-c3cccnc3)c3conc23)cc1,i,0.02
COc1ccc(N(C(=O)Cn2nnc(-c3ccccc3F)n2)C(C(=O)NCC2CCCO2)c2ccc(Cl)cc2)cc1 (stereo not given),i,-0.26
Cc1ccccc1CN1CCSc2sccc2C1=O,i,0.58
Nc1cccc(Oc2ccc3c(c2)C(=O)N(CC2CCCO2)C3=O)c1 (stereo not given),i,0.05
Cn1ccc(NC(=O)Nc2ccc(Cl)cc2)n1,i,1.7
O=C(Nc1nnc(C2CC2)o1)c1ccc(S(=O)(=O)N2CCCc3ccccc32)cc1,i,-0.02
Cc1ccc2[nH]c(=O)c(CN3CCCCC3)c(-c3ccccc3)c2c1,i,0.08
COc1ccc2c(N)c(C(=O)NN)[nH]c2c1,i,0.87
Cc1ccc(S(=O)(=O)Cc2ccc(C(=O)N3CCc4ccccc4C3)o2)cc1,i,0.66
COc1cc(C)c(N(C(C)=O)c2ccccc2)c(C)c1,i,1.1
COc1ccc(-n2c3c(cc(C(=O)Nc4cccc(C)n4)c2=O)C(=O)CC(C)(C)C3)cc1,i,-0.45
C/C(CC(O)(/C=N/O)c1ccccc1)=N\O (stereo not given),i,-0.25
O=C(Nc1nnc(-c2ccco2)o1)c1ccc(S(=O)(=O)N2CCCC2)cc1,i,-1
Cc1cc(C)cc(NC(=S)N(CCN(C)C)C(C)c2cccnc2)c1 (stereo not given),i,-0.01
COc1ccc(CCNC(=O)COC(=O)Cn2cnc3ccccc3c2=O)cc1,i,-1.3
Cc1ccc(CNS(=O)(=O)c2ccc3c(c2)NC(=O)C(C)S3)cc1 (stereo not given),i,-1.1
O=S(=O)(NC1c2cccc3cccc(c23)C1Sc1ncccn1)c1ccccc1 (stereo not given),-6.4*,1.1*
CC(C)(C)c1nc(N)nc(=O)[nH]1,i,0.62
Cc1cc(C(=O)CN2C(=O)c3ccccc3C2=O)c(C)n1C1CC1,i,0.2
Cc1cccc(NC(=O)c2cccc(S(=O)(=O)N3CCc4ccccc4C3)c2)n1,i,-0.03
CSc1ccccc1NC(=O)CSCc1ccc(Br)cc1,i,-0.45
CC(C)(C)NC(=O)C(c1ccc(O)cc1)N(C(=O)CCC(=O)Nc1nccs1)c1ccc(F)cc1 (stereo not given),i,-0.44
CCC(C)(C)c1ccc(OC(=O)c2cccnc2Cl)cc1,i,0.4
COCCCNC(c1ccccc1)c1ccncc1 (stereo not given),i,2.8
COc1ccc(CCNCc2c(-c3ccccc3)n(C)c3ccccc23)cc1,i,1.2
CN(C)c1nc(-c2ccccc2)cc(C(F)(F)F)c1C#N,i,-0.77
CC1CCN(CCCNC(=O)CN2C(=O)CSc3ccc(S(=O)(=O)N4CCC(C)CC4)cc32)CC1,i,-0.07
Cc1cc(NS(=O)(=O)c2ccc(NS(=O)(=O)c3ccc(Br)cc3)cc2)no1,i,-1.4
CCCCCN=C(C)c1c(O)c2ccccc2oc1=O,i,1.4
COc1ccc(S(=O)Cc2ccc(C(=O)NCc3cccc(OC)c3)o2)cc1 (stereo not given),i,1.8
COc1ccc(NC(=O)CSc2nc3ncccc3[nH]2)cc1OC,i,1.8
CSc1oc(-c2ccco2)nc1S(=O)(=O)c1ccc(F)cc1,i,-0.17
Nc1nonc1-n1nnc(C(=O)N/N=C/c2cc(Br)ccc2O)c1CSC1=NCCS1,i,0.5
COc1ccc(/C=C2\SC(=S)N(C(C)C(=O)NC3C=CS(=O)(=O)C3)C2=O)cc1 (stereo not given),i,-0.05
O=C(Cc1ccc(F)cc1)N1CCN=C1SCc1ccc([N+](=O)[O-])cc1,i,0.1
COCCCn1c(CCC(=O)O)ccc1-c1ccc(F)cc1,i,1.1
COc1cc(OC)c2c(c1C(CCN1CCOCC1)c1ccc(N(C)C)cc1)OC(=O)CC2c1ccc(N(C)C)cc1 (stereo not given),i,-0.38
CCCC(C(=O)NC1=NCCS1)c1ccccc1 (stereo not given),i,2.8
C=CCn1cc(C(=O)N2CCN(CC)CC2)c(=O)c2cc(S(=O)(=O)N(CC)CC)ccc21,i,-0.76
Cc1ccc(CN2CCN(Cc3cc(=O)c4ccccc4[nH]3)CC2CCO)o1 (stereo not given),i,-0.72
CCN1CCN(c2ccc(S(=O)(=O)N3CCCCC3)cc2NC(=O)COc2cc(C)ccc2Cl)CC1,i,-0.47
CC(=O)N1CCN(c2ccccc2NC(=O)c2cc(Br)ccc2Cl)CC1,i,2.8

# Filtered by structure: the entries above with a cyano group (2)
SMILES,KCNQ2 block,KCNQ2 block baseline
CCOC(=O)/C(C#N)=C/c1ccc(N2CCCCC2)cc1,i,1.2
CN(C)c1nc(-c2ccccc2)cc(C(F)(F)F)c1C#N,i,-0.77

# Additional structures
SMILES,KCNQ2 block,KCNQ2 block baseline
COC(=O)c1c(NC(=O)c2ccc(Br)o2)sc(C)c1C,i,-0.69
COc1cc(/C=C2/C(=N)N3OC(C)=CC3=NC2=O)ccc1OC(=O)c1ccco1,i,0.15
COc1cccc(C(=O)C[n+]2ccccc2/C=N/O)c1,i,7.7
O=C(Nc1ccc(CN2CCS(=O)(=O)CC2)cc1)c1ccc(Cl)cc1,i,-0.01
C[C@@H]1CC=C[C@H]2[C@H]1C(=O)N(Cc1ccccc1)[C@H]2c1ccc(-c2ccc(F)cc2)cc1F,i,0.04
O=C(c1ccc(S(=O)(=O)Cc2ccccc2Cl)c([N+](=O)[O-])c1)N1CCN(c2ccccn2)CC1,i,-1.2
Cc1ccsc1C1C(C#N)=C(N)N(N(C)C)C2=C1C(=O)CC(C)(C)C2 (stereo not given),i,1.8
c1ccc(Cc2nn3c(C4COc5ccccc5O4)nnc3s2)cc1 (stereo not given),i,0.81
CCC(CC)NC(=O)CN(c1ccccc1OC)S(=O)(=O)c1cccs1,i,0.51
C=CCOC(=O)C1=C[C@@H](c2cn(C(C)=O)c3ccccc23)C[C@@H](OCc2ccc(CO)cc2)O1,i,-1.4
COc1cc(/C=C2\N=C(c3ccccc3)OC2=O)ccc1OC(C)=O,i,0.07
O=C(CC1Nc2ccccc2NC1=O)Nc1ccccc1 (stereo not given),i,1.1

# Compound activity deposited in PubChem by Johns Hopkins Ion Channel Center.
